rRNA inh HTS: reduced GFP signal of wild-type E. coli, primary screen, bacterial rRNA inhibitor project, GFP/RFP fluorescence, OD600, single point | E. coli WT GFP vs humanized-ribosome RFP mutants, 24 h; active compounds read low; DMSO median 0, no signal -100 | GFP signal change (wild-type ribosome), % (concentration not given with the values) | hit rate 1.6% among 350,000 | AID 720706, 2013;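 active = significant combined selectivity score with lowered wild-type GFP, culture density cut under 30%, mutant RFP and density less affected; inactive = any of these conditions unmet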; note: one replicate is shown; some compounds called inactive have numbers as strong as hits
MLL AF4-AF9 inh: inhibitors of AF4 peptide binding to AF9, primary screen, biochemical, AlphaScreen, biotin-AF4 peptide, FLAG-AF9, single point. Protein AF-9 (Homo sapiens), P42568. inhibition, % at 10 µM. hit rate 0.47% among 350,000;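 active = every replicate reaching a set inhibition limit, whatever the replicate mean, cut at about 25% in these data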;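 note: 0% = plate neutral control median and 100% = total signal loss; the record names both 10 and 1 µM as test concentration; the first replicate is given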
Target sequence (P42568 whole entry, looked up): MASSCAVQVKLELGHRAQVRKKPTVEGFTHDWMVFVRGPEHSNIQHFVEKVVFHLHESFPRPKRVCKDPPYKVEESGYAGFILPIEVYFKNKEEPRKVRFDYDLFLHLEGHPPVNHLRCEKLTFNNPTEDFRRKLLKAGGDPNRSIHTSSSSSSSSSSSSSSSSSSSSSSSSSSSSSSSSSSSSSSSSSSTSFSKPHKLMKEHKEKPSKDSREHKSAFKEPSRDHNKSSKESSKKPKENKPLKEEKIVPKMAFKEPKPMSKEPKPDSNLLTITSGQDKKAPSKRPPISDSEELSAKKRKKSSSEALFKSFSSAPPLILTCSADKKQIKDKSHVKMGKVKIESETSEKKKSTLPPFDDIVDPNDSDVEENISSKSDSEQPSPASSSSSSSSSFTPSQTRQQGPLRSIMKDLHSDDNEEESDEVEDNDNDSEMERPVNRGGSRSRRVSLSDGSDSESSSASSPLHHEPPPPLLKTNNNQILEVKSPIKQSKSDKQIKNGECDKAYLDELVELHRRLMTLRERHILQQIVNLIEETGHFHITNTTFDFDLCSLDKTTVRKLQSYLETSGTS
FGF22 binding: binders of human FGF22 protein, primary screen, FGF22 synaptogenesis inhibitor project, biophysical, thermal shift, single point. calls only at 9.99 µM. recombinant FGF22 thermal shift, SYPRO orange fluorescence; percent of sucrose octasulfate shift, DMSO zero. hit rate 1.5% among 340,000;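 active = melting point raised past a set limit in the mean and every replicate; three in four hits are not shown here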
Target sequence (Q9HCT0 whole entry, looked up): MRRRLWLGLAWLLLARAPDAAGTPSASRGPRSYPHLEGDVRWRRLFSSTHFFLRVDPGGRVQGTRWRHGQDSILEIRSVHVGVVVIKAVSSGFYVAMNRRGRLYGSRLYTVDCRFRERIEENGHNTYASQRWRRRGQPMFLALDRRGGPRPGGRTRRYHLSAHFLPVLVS
Bfl-1 A1 inh: caspase 3/7 activation in MEF A1-2A-BIM cells, primary screen, A1 inhibitor project, cell-based, luminescence, HTS | AID 2462, 2010 | caspase activation, % (test concentration not listed) | Caspase-Glo 3/7 luminescence, 3 h; percent of clofoctol response, vehicle zero | hit rate 0.066% among 330,000;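 active = over half of replicate activation scores above 10%, or exactly half above 10 with the replicate mean above 10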;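 note: wells of about 30 µL received 50 nL stock; many hits fall short of the cut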
T cruzi inh: inhibitors of intracellular T. cruzi growth, primary screen, luminescence, NIH3T3 host cells. T. cruzi beta-gal in NIH3T3, 90 h. inhibition, % (concentration not given with the values). hit rate 1.4% among 300,000. AID 1885, 2009;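 active = mean inhibition across valid replicates above about 55%, limit read from the data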;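 note: signal also drops with host cell toxicity which is not excluded here; 0% = plate median of DMSO wells and 100% = zero luminescence signal; higher percent means less beta-gal luminescence so fewer parasites; stock transfer was 50 nL into about 50 µL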
UCH37 inh: inhibitors of human UCH37 deubiquitinase, primary screen, biochemical, Ub-AMC cleavage, fluorescence; inhibition, % (no concentration beside the values); purified proteasome/UCH37; Ubiquitin carboxyl-terminal hydrolase isozyme L5 (Homo sapiens), Q9Y5K5; hit rate 0.33% among 330,000;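 active = mean of two replicates above 20%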;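 note: 0% = compound-free wells with enzyme and 100% = wells lacking proteasome; stock transfer was 100 nL into about 20 µL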
Target sequence (Q9Y5K5 whole entry, looked up): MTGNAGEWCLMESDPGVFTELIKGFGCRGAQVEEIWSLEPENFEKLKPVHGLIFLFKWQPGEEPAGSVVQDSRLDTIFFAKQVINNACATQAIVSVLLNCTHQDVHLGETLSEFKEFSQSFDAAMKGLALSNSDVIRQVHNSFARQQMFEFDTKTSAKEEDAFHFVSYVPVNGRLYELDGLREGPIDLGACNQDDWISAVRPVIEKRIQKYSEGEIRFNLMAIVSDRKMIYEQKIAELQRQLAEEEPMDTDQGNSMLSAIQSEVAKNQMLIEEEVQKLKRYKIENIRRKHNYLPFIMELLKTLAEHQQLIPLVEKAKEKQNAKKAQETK
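Reagent: Ub-AMC substrate; assay system: Proteasome-associated human UCH37 deubiquitinase; controls: no-proteasome and no-compound wells; read-out: % inhibition of Ub-AMC cleavage fluorescence; timing: 30 min preincubation with enzyme, 25 min cleavage at room temperature; signal: AMC fluorescence from Ub-AMC cleavage, excitation 355 nm, emission 460 nm; buffer or medium: Tris-HCl pH 7.4 plus ovalbumin, ATP-MgCl2, DTT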
E coli growth: E. coli growth inhibition, primary screen, OD600; Escherichia coli growth, 23 h; active compounds read low; OD600 absorbance (concentration not given with the values); hit rate 0.21% among 330,000;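 active = OD600 absorbance below the run mean of sample wells minus 3.6 SD, in any replicate, cut at about 0.56 in these data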;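 note: stock transfer was 300 nL into about 60 µL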
Beta cell apopt: inhibitors of cytokine-induced beta cell apoptosis, primary screen, luminescence | hit rate 0.8% among 300,000 | INS-1E cytokine-induced death, ATP luminescence, 48 h; percent of positive-control rescue, neutral wells zero | protection from apoptosis, % (concentration not given with the values);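 active = all replicates at 75% or more, or half of them and the mean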;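 note: 0% = cytokine-treated negative control wells and 100% = positive control rescue; higher means more ATP so stronger rescue from cytokine killing; wells of about 40 µL received 100 nL stock; the first replicate is given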
rRNA inh HTS OD600: recorded beside rRNA inh HTS, whose call it bears; OD600 change, %; measured here: OD600 growth;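 optical density of the mix in the first replicate; 0 = DMSO median and -100 = no signal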
rRNA inh HTS RFP: further read-out of rRNA inh HTS, marked with its call; RFP signal change, %; measured here: RFP humanized mutant strains;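 first replicate; 0 = DMSO median and -100 = no signal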
Starred values were filed as active, the others as inactive; i = inactive; . = no result given; & = joins results of further samples. Only part of the results is shown (hit frequency here may not be typical).

SMILES | rRNA inh HTS | rRNA inh HTS OD600 | rRNA inh HTS RFP | MLL AF4-AF9 inh | FGF22 binding | Bfl-1 A1 inh | T cruzi inh | UCH37 inh | E coli growth | Beta cell apopt
CCCCc1cc(=O)oc2c3c(cc(OCC(=O)NCCCO)c12)OC(C)(C)CC3 | -9.7 | -6.7 | -1.0 | -7.6 | i | 1.7 | 24.0 | i | 0.696 | -0.8
COc1ccc2ccccc2c1CN1CCN(C)CC1 | . | . | . | . | . | 0.5 | 3.7 | 3.7 | 0.697 | 0.3
COc1ccc(-n2c(-c3ccccc3)nnc2-c2ccc(Cl)cc2)cc1 | . | . | . | . | . | -0.4 | 40.4 | -1.5 | 0.711 | 6.0
Cn1c2c(c(=O)n(C)c1=O)C1c3cc(Cl)ccc3OCC1CO2 (stereo not given) | . | . | . | . | . | -0.4 | -9.4 | -1.0 | 0.718 | -3.3
CC(=O)[C@@H]1[C@@H](C)N(Cc2ccccc2)C(=O)N[C@H]1c1ccccc1 | 4.1 | 7.5 | 2.8 | -49.5 | i | 0.5 | -5.1 | 0.6 | . | -2.8
COc1ccc(-n2c(SCC(=O)Nc3ccccc3OC)nc(O)cc2=O)cc1 | 16.4 | -1.0 | 12.0 | . | i | -0.5 | -8.7 | 2.9 | 0.716 | .
O=C(CSc1nnc2c(Cl)cc(Cl)cn12)N1CCN(S(=O)(=O)c2ccccc2)CC1 | . | . | . | . | . | 0.5 | 5.6 | 0.4 | 0.689 | -5.8
COc1ccc(CCN2CC(C(=O)Nc3ccccc3F)CC2=O)cc1OC (stereo not given) | 8.8 | 4.3 | 1.2 | 8.6 | i | -0.2 | -4.9 | -1.5 | 0.714 | 2.5
Cn1c(-c2ccc(Cl)cc2)cnc1N | . | . | . | . | . | 0.1 | -5.1 | 0.8 | 0.592 | 17.6
CC(C)(C)c1cc(NC(=O)Nc2ccc(Cl)cc2Cl)no1 | 5.0 | 7.3 | -0.5 | -4.0 | i | 0.2 | 10.2 | -2.5 | 0.677 | .
COc1ccc(-n2c(=S)[nH]c3cc(C(=O)NCc4ccc(F)cc4)ccc3c2=O)c(OC)c1 | -5.0 | -8.5 | -0.9 | 1.0 | i | 0.2 | 6.6 | 2.9 | 0.668 | -0.1
CN(CCc1ccccc1)c1ccc([N+](=O)[O-])cn1 | -33.7 | -41.7 | 25.2 | -0.1 | i | 1.0 | -2.5 | 1.7 | 0.702 | -7.7
CCCCCCC(=O)O | 4.6 | 4.0 | -4.9 | -0.2 | i | . | . | 0.5 | 0.692 | .
CCN(C(=O)COC(=O)c1ccc(S(=O)(=O)N2CCCc3ccccc32)cc1)C1CCS(=O)(=O)C1 (stereo not given) | 15.2 | 10.3 | -0.5 | 0.1 | i | 0.2 | -2.1 | 0.5 | 0.689 | 4.4
O=C(N/N=C/c1ccc(-c2ccc([N+](=O)[O-])cc2)o1)[C@H]1C[C@@H]1c1ccccc1 | 13.5 | 7.3 | 3.8 | -4.5 | i | -0.5 | 47.0 | . | . | 11.3
Cc1ccccc1CCN(C(=O)Cn1nnc2ccccc21)C(C(=O)NC(C)(C)C)c1ccsc1 (stereo not given) | -0.3&13.0 | 10.5&11.5 | -7.5&2.3 | -3.2 | i | 0.6 | 4.3 | 1.6 | 0.705 | -7.5
O=C(Nc1ccc2c(c1)CCCN2C(=O)c1ccccc1)c1ccccc1 | -26.6 | -23.4 | -5.3 | -2.7 | i | -14.9 | -8.1 | 3.4 | 0.623 | 32.9
C=CCC[C@@H](Cc1ccc(F)cc1)C(=O)OC[C@H](Cc1c[nH]c2ccccc12)NC(=O)[C@@H](CC=C)CC(=O)N[C@H](CO)Cc1ccccc1 | 7.7 | -1.9 | 1.7 | -1.3 | i | 0.9 | . | -0.2 | . | -1.9
O=C(Nc1ccc(Br)cc1)c1ccc(-n2cnnn2)cc1 | -0.8 | 10.0 | -0.4 | -9.6 | i | 0.0 | -4.4 | -1.9 | 0.684 | 4.9
COC(=O)c1ccc(C(=O)OC)c(NC(=O)CSc2ccccn2)c1 | . | . | . | . | . | 3.9 | -3.5 | -7.3 | 0.733 | -1.8
O=S(=O)(Nc1ccc2c(c1)OCCO2)c1cccc(F)c1 | 1.0 | -5.0 | 7.5 | 3.8 | i | -0.1 | -1.6 | 4.3 | 0.697 | .
COc1ccc(S(=O)(=O)N2CCOCC2)cc1NC(=O)CN1CCC(Cc2ccccc2)CC1 | 2.9 | -8.6 | 8.1 | 10.6 | i | 0.7 | 19.4 | -0.4 | 0.714 | 33.2
O=C(CNC(=O)c1ccncc1)N/N=C/c1ccccc1[N+](=O)[O-] | 15.7 | 8.2 | -0.6 | -2.2 | i | 0.6 | -28.4 | . | . | 3.3
CCN1C(=O)/C(=C\c2ccncc2)SC1=S | 7.2 | 5.7 | 0.6 | -9.2 | i | 1.1 | 2.9 | 6.0 | 0.641 | -3.6

Quoted from the results shown for reference:
SMILES | rRNA inh HTS | rRNA inh HTS OD600 | rRNA inh HTS RFP | MLL AF4-AF9 inh | FGF22 binding | Bfl-1 A1 inh | T cruzi inh | UCH37 inh | E coli growth | Beta cell apopt
O=C(CNC(=O)c1ccncc1)N/N=C/c1ccccc1[N+](=O)[O-] | 15.7 | 8.2 | -0.6 | -2.2 | i | 0.6 | -28.4 | . | . | 3.3
CCN1C(=O)/C(=C\c2ccncc2)SC1=S | 7.2 | 5.7 | 0.6 | -9.2 | i | 1.1 | 2.9 | 6.0 | 0.641 | -3.6

Next compounds.
SMILES | rRNA inh HTS | rRNA inh HTS OD600 | rRNA inh HTS RFP | MLL AF4-AF9 inh | FGF22 binding | Bfl-1 A1 inh | T cruzi inh | UCH37 inh | E coli growth | Beta cell apopt
CCOCc1c(C(=O)OCC(=O)Nc2ccc(C)c(S(=O)(=O)N(C)C)c2)oc2ccccc12 | -16.4 | -16.5 | 9.9 | -11.6 | i | 0.7 | 0.2 | 1.5 | 0.703 | 0.8
Cc1ccc(NC2CC(=O)N(c3ccc(C)cc3)C2=O)cc1 (stereo not given) | . | . | . | . | . | -0.2 | -2.7 | 4.9 | 0.655 | -4.8
CCOCCCNS(=O)(=O)c1ccc2c(c1)OCCO2 | . | . | . | . | . | -0.3 | 4.4 | 0.4 | 0.677 | -4.1
Cc1cccn2c(=O)nc(SCC(=O)N3CCCCC3)nc12 | 6.5 | 1.4 | -1.8 | -25.8 | i | 0.0 | -4.4 | 0.8 | 0.67 | .
COc1ccccc1C(=O)Nc1ccc(Oc2ncnc3sc(-c4ccccc4)cc23)cc1 | . | . | . | . | . | -0.6 | 39.1 | -23.0 | 0.662 | 4.1
CC(C)(C)C(=O)Nc1c2c(nc3c1CCC3)CCCC2 | . | . | . | . | . | 0.7 | -3.7 | 0.0 | 0.701 | -2.3
O=C1c2ccccc2C(=O)N1CCCCSc1nnc2c(Cl)cc(Cl)cn12 | . | . | . | . | . | 1.1 | -3.9 | -4.2 | 0.779 | 3.5
CCOc1ccc(-c2nonc2NC(=O)c2ccco2)cc1 | -15.2 | -15.4 | 2.3 | 1.2 | i | -0.1 | -1.3 | 1.5 | 0.688 | 2.3
O=C(CN1C(=O)NC2(CCCCC2)C1=O)N1CCN(S(=O)(=O)c2ccc(F)cc2)CC1 | 11.3 | 7.9 | 2.1 | -1.5 | i | 0.0 | 5.6 | 2.2 | 0.727 | -1.9
O=C(O)C1CCCN1C(=O)Oc1ccccc1 (stereo not given) | . | . | . | . | . | 0.3 | -19.9 | 0.9 | 0.731 | -4.1
Nc1ccc2nc(-c3cccs3)[nH]c2c1 | 6.2 | 19.4 | -0.7 | -0.6 | i | -4.1 | 21.6 | i | 0.651 | 18.9
Cc1cccc(-c2n[nH]c(=S)n2/N=C/C=C/c2ccco2)c1 | -12.1 | 3.5 | 3.7 | 1.9 | i | 0.5 | -23.1 | . | . | -7.4
O=C(CC1(O)C(=O)N(Cc2ccc3c(c2)OCO3)c2ccccc21)c1ccccc1 (stereo not given) | . | . | . | . | . | 0.2 | 16.4 | 2.4 | 0.765 | -1.3
Cc1ccc(NC(=O)Cn2ncc3ccccc32)c(Cl)c1 | 4.8 | 6.4 | -1.0 | -0.7 | i | 0.2 | 0.4 | 4.4 | 0.676 | -1.5
CCn1c2ccccc2c2cc([N+](=O)[O-])ccc21 | 9.8 | 3.8 | 2.3 | -0.9 | i | -0.3 | -3.2 | 2.1 | 0.651 | 0.4
CCCc1c(C(=O)N/N=C/C(C)=C/c2ccco2)nnn1-c1nonc1N | 2.1 | -1.4 | 9.3 | -1.2 | i | 1.4 | -16.1 | . | . | 2.6
COc1cc2nc(N3CCNCC3)nc(N)c2cc1OC | . | . | . | . | . | -0.1 | 31.9 | -143.7 | 0.731 | -7.1
CCC(=O)c1cn(CC(=O)O)c2ccccc12 | 14.0 | 5.7 | 1.9 | -0.4 | i | -0.4 | -7.4 | 0.2 | 0.686 | -2.1
Cc1ccc(C(=O)Nc2oc(-c3ccccc3)cc2C#N)cc1 | . | . | . | . | . | -0.4 | 6.8 | -18.4 | 0.801 | 1.2
O=c1onc(-c2ccccc2)n1-c1cc(Cl)cc(Cl)c1 | -21.6 | -17.6 | 1.9 | -0.2 | i | 0.7 | -5.1 | 1.9 | 0.577 | .
CCOC(=O)c1c(-c2cccs2)csc1NC(=O)CC(C)C | . | . | . | . | . | 0.3 | 20.2 | -0.8 | 0.725 | 7.8
Cc1cccn2cc(CCNC(=O)c3cccs3)nc12 | 4.8 | 1.2 | 2.0 | 5.8 | i | -0.6 | -9.1 | 1.2 | 0.673 | -0.9
O=C(NC(=S)N1CCN(C/C=C/c2ccccc2)CC1)c1cccnc1 | 0.8 | -0.7 | 10.1 | 2.1 | i | 0.0 | -12.5 | 0.1 | 0.665 | .
Cc1cc(NC(=O)CSC2=NS(=O)(=O)c3cc(Cl)ccc3N2)no1 | 3.7 | 5.1 | -0.3 | -0.9 | . | 0.2 | -4.5 | 0.8 | 0.654 | -2.7
COc1ccc(C2NCCc3cc(OC)c(OC)cc32)cc1OC (stereo not given) | . | . | . | . | . | -0.4 | 5.0 | 0.8 | 0.722 | -5.4
O=c1n(S(=O)(=O)c2cccc3cccnc23)c2ccccc2n1S(=O)(=O)c1cccc2cccnc12 | 12.8 | 15.2 | -11.8 | 5.1 | i | 0.0 | 20.2 | 7.1 | 0.741 | 15.4
COc1ccc(S(=O)(=O)N2CCCCC2)cc1NC(=O)CCNC(=O)c1ccco1 | 1.7 | 1.8 | -0.6 | -11.0 | i | . | . | 4.4 | 0.688 | .
O=C(CN(C(=O)c1ccccc1)N1C(=O)CCC1=O)c1cccs1 | 13.9 | 16.2 | -0.4 | -0.4 | i | 0.4 | 2.2 | 1.1 | 0.704 | -2.0
COc1ccccc1Cc1noc(-c2cc(Cl)ccc2OC)n1 | . | . | . | . | . | -0.9 | 32.1 | 2.5 | 0.706 | -11.6
COc1cc(SC)ccc1C(=O)OC(C)C(=O)NC1CCCC1 (stereo not given) | 4.0 | 3.6 | 1.8 | 0.6 | i | . | . | -0.5 | 0.703 | .

Screening results as filed in PubChem.
